VDR inh: Inhibitors of the vitamin D receptor (VDR): qHTS | VDR-SRC2-3 peptide fluorescence polarization, 2 h | Potency, µM, without a hit: max response, negative = inhibition, usual class: inhibitors | hit rate 0.93% among 400,000 | AID 504847, 2011; active = well fitted inhibition curve with a large enough effect; inconclusive = small, poorly fitted or top-dose-only effect, or another doubt; inactive = no such curve, though single readings can be large or run the other way; also: series mostly up to about 120 µM
Target sequence (P11473 whole entry, looked up): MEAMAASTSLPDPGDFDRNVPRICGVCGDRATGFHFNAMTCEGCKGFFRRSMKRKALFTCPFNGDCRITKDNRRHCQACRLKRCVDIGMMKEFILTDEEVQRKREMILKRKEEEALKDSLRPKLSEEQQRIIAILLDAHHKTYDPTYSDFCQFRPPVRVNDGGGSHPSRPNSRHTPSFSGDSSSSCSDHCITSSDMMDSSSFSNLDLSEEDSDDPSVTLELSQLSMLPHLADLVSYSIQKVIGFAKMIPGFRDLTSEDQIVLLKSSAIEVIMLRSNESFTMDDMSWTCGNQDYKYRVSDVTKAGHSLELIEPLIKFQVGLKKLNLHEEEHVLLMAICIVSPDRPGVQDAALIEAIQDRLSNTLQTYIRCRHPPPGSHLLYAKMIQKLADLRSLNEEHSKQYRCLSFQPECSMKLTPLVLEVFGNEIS
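VDR–SRC2-3 interaction, FP format. Cmpds 23 nl via pintool, brief spin, 2 h ambient incubation.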
Starred values were filed as active, the others as inactive; ? = inconclusive; & = joins results of further samples. % is scaled to controls: 0 for no effect and ±100 for the full control effect; potency is read from the fitted curve at half-maximal effect. Only part of the results is shown (hit frequency here may not be typical).

SMILES | VDR inh
COc1ccc(C(=O)NCC(=O)N/N=C/c2ccco2)cc1OC | 18.3%
COCc1nnc(NC(=O)CCCOc2ccccc2OC)s1 | -17.4%
Nc1sc(-c2ccccc2)cc1-c1n[nH]c(=S)n1C1CCCCC1 | -17.7%
Cc1ccccc1N1CCN(Cc2cc3c(cc2[N+](=O)[O-])OCO3)CC1 | -2.9%
COc1ccc(C2CC(c3ccccc3)=NN2C(=O)CSc2ncccn2)cc1 (stereo unspecified) | 4.7%
COc1ccc(/C(C)=N/Nc2ccc(C(=O)O)cc2)cc1OC | -8.3%
CCCS(=O)(=O)N1CCCC(C(=O)Oc2ccccc2Cl)C1 (stereo unspecified) | 3.6%
CN1CCN(C(=O)CCC(=O)NCc2ccc(F)cc2)CC1 | 16.3%
C/C(=N/NS(=O)(=O)c1ccc(C(C)(C)C)cc1)c1ccc2c(c1)OCO2 | 0.8%
O=C(O)C1(C(=O)O)CCCC1 | -23.6%
COc1ccc(C2=NS(=O)(=O)N(C)C(C(=O)N(C)Cc3ccccc3)=C2)cc1 | 2.4%
O=C(NC(=S)Nc1ccccc1Cl)c1cncc(C#Cc2ccccc2)c1 | 15.5%
COc1ccc(CN(CCN2CCOCC2)C(=O)c2c(F)cccc2F)cc1OC | 0.8%
c1ccc(OCCN2CCOCC2)cc1 | -5.9%
COc1ccc(C)cc1NC(=O)C1C2C=CC(C2)C1C(=O)O (stereo unspecified) | -11.6%
Cc1cc(C)cc(NC(=O)CN2C(=O)c3ccccc3Sc3ccc(C(=O)N4CCOCC4)cc32)c1 | 0.0%
CCC(C(=O)N1CCOCC1)n1nc(C)c2sc3ccccc3c2c1=O (stereo unspecified) | -7.8%
O=C(CSc1ncc(S(=O)(=O)c2ccc(Cl)cc2)c(=O)[nH]1)Nc1ccc2c(c1)OCCO2 | -14.2%
Cc1cc(C)c2c(C(C)(C)C)nn(-c3ccccc3)c2n1 | 10.1%
CCN(CC)c1ccc(C2C3CCCCC3(O)CCN2C(=O)c2cccs2)cc1 (stereo unspecified) | 5.3%
Cc1cc(C)cc(NC(=O)C2CCN(c3cc(C)nc4c(-c5ccc(Cl)cc5)c(C)nn34)CC2)c1 | -11.1%
Cc1ccccc1NC(=O)COc1nsnc1N1CCOCC1 | -7.8%
CCCCOCCCNCc1cccn1CCN1CCOCC1 | 3.3%
O=c1cc(CSc2nnc(C3CC3)n2Cc2ccccc2)nc2sccn12 | 6.8%
CCOC(=O)c1ccc(CNS(=O)(=O)c2c(C)ccc3nsnc23)o1 | -8.0%
CCc1ccc(CNCc2c(C(=O)O)n(Cc3ccc(F)cc3Cl)c3cc(OC)ccc23)cc1 | 4.6%
CCCC1=C(C(=O)OCC)C(c2ccco2)n2ncnc2N1 (stereo unspecified) | -10.7%
COc1ccc(-c2[nH]ncc2CN2CCC(OCc3ccccn3)CC2)c(F)c1 | -4.9%
CCOc1ccccc1CN1CCN(Cc2nc3ccccc3s2)CC1CCO (stereo unspecified) | -7.9%
O=C1NC(=O)/C(=C/c2ccc(O)cc2)S1 | -14.7%
NS(=O)(=O)c1cccc(NC(=O)CN2CCN(S(=O)(=O)c3ccc4c(c3)OCCO4)CC2)c1 | -7.1%
Cc1ccc(C(=O)CCNc2cccc(Br)c2)o1 | -10.4%
CCN1CCN(C(=O)c2ccc3c(c2)N(Cc2ccc(F)cc2)C(=O)c2ccccc2S3=O)CC1 (stereo unspecified) | -10.0%
CN(N)C(=S)NCc1ccccc1 | 8.9%
Cn1c(=O)cc(OCC(=O)NCc2ccc(F)cc2Cl)c2ccccc21 | -21.1%
Cc1oc2c(CN(C)C)c(O)ccc2c(=O)c1-c1cscn1 | -7.9%
O=C(c1ccccc1)N1CCCCC(S(=O)(=O)c2ccc3ccccc3c2)C1=O (stereo unspecified) | 8.6%
COc1ccc(C(=O)O)cc1S(=O)(=O)N1CCN(Cc2ccc3c(c2)OCO3)CC1 | 11.3%
O=C(CSc1ncnc2c1nnn2Cc1ccccc1)NC1CCCC1 | -2.9%
CC1CCN(Cc2nnnn2CCCC(=O)NCCc2cnn(C)c2)CC1 | -13.7%

An excerpt from above in order of heavy-atom count, lowest first.
SMILES | VDR inh
Cc1ccccc1NC(=O)COc1nsnc1N1CCOCC1 | -7.8%
CCOC(=O)c1ccc(CNS(=O)(=O)c2c(C)ccc3nsnc23)o1 | -8.0%
O=C(CSc1ncnc2c1nnn2Cc1ccccc1)NC1CCCC1 | -2.9%
COc1ccc(-c2[nH]ncc2CN2CCC(OCc3ccccn3)CC2)c(F)c1 | -4.9%
CCN1CCN(C(=O)c2ccc3c(c2)N(Cc2ccc(F)cc2)C(=O)c2ccccc2S3=O)CC1 (stereo unspecified) | -10.0%

The list goes on:
SMILES | VDR inh
Oc1ccc(Br)cc1/C=N/n1c(C2CCCCC2)n[nH]c1=S | -28.4%
N#C/C(=C/c1ccc(Oc2ccc([N+](=O)[O-])cn2)cc1)C(=O)N1CCOCC1 | ?
CNC(=O)COC(=O)c1ccccc1Nc1ccccc1 | 2.3%
COc1cccc(Cn2c(=O)sc3ccccc3c2=O)c1 | -21.8%
CN(CCO)c1ccc(C=NNc2ccc([N+](=O)[O-])cc2S(=O)(=O)Nc2ccccc2C(=O)O)cc1 | 79.4µM*
Cc1ccc(CN2C(=O)CCC2C(=O)NCCN2CCN(c3cccc(Cl)c3)CC2)cc1 (stereo unspecified) | -0.9%
O=C(Nc1cccnc1)C1=NN(C2CCS(=O)(=O)C2)C(=O)CC1 (stereo unspecified) | -14.2%
Cc1cccc(N=C2C(=O)Nc3c(Cl)cccc32)c1 | ?
CCOC(=O)c1sc2nc[nH]c(=O)c2c1C | 9.2%
O=C(NCc1ccco1)C1Cc2cc(Cl)ccc2O1 (stereo unspecified) | -13.5%
CCN1CCN(CCCNC(=O)c2ccc(NC(=O)C3=C(C)OCCS3)cc2)CC1 | -2.9%
COc1ccc(/C=C2\COc3ccccc3C2=O)c(OC)c1 | ?
Cc1cc(Cl)c(S(=O)(=O)Nc2ccc(S(=O)(=O)N3CCOCC3)cc2)cc1OCC(N)=O | -7.4%
O=C(Nc1ccc(Br)cc1)N1CCCCCC1 | 6.6%
COc1ccccc1Nc1ncc(C(C)=O)c(C)n1 | -4.2%
CN(CCc1ccccn1)C(=O)c1ccc(OC(F)(F)F)cc1 | 13.7%
NC(=O)c1nsc(C(=O)N(c2cccc(F)c2)C(C(=O)NCc2ccccc2)c2ccc(O)cc2)c1N (stereo unspecified) | 8.9%
O=Cc1ccc(OC2OCCOC2Oc2ccc(C=O)cc2)cc1 (stereo unspecified) | -18.0%
COc1cccc(Nc2nc(-c3sc(N)nc3C)cs2)c1 | -4.1%
COc1ccc(Cc2nnc(N/N=C/c3ccc(Br)cc3)[nH]c2=O)cc1OC | 2.2%

An excerpt from above in order of their number in VDR inh, rising.
| canonical_smiles | VDR inh |
| --- | --- |
| Cc1cc(Cl)c(S(=O)(=O)Nc2ccc(S(=O)(=O)N3CCOCC3)cc2)cc1OCC(N)=O | -7.4% |
| CNC(=O)COC(=O)c1ccccc1Nc1ccccc1 | 2.3% |
| NC(=O)c1nsc(C(=O)N(c2cccc(F)c2)C(C(=O)NCc2ccccc2)c2ccc(O)cc2)c1N (stereo unspecified) | 8.9% |

Further records.
SMILES | VDR inh
O=C(C1COc2ccccc2O1)N(Cc1cccnc1)c1nc2ccc(Cl)cc2s1 (stereo unspecified) | 11.8%
Cc1c(NS(=O)(=O)c2cccs2)cccc1-c1nc2cccnc2s1 | 4.6%
CCOC(=O)CC(NC(=O)CCc1c(C)nc2ncnn2c1C)c1ccc(OC(C)C)cc1 (stereo unspecified) | 1.9%&-1.9%
O=C(NCc1ccccc1)C1=C[C@@H](C2CCCCC2)C[C@@H](OCc2ccc(CO)cc2)O1 | ?
Cc1ccc(-c2nc3ncccc3o2)cc1NC(=O)c1cc2ccccc2o1 | -2.6%
O=C(COC(=O)c1ccccc1Oc1ccccc1)NC1CC1 | -2.0%
COc1ccccc1NS(=O)(=O)c1ccc(C)c(NC(=O)NC2CCCCC2)c1 | 10.3%
COc1ccc(CN2C(=O)c3ccccc3C2=O)cc1C(=O)O | 3.8%
CC(C)(C)C(=O)c1cn(CC(=O)NCc2ccc3c(c2)OCO3)c2ccccc12 | -0.9%
CCN(c1ccccc1)S(=O)(=O)c1ccc(NC(=O)C(C)(C)C)cc1 | -9.9%
CC(C)(Oc1ccc(Cl)cc1)C(=O)OCc1nc2ccsc2c(=O)[nH]1 | -10.3%
COc1cccc2c1C(=O)c1c(O)c3c(c(O)c1C2=O)CC(O)(C(C)=O)CC3OC1CC(N(C)C)C(O)C(C)O1 (stereo unspecified) | -7.0%
CCOC(=O)C1CSC(CC(=O)Nc2ccc(OC(F)(F)F)cc2)C(=O)N1 (stereo unspecified) | 8.4%
Cc1nnc(SCCn2c(N3CCCCCC3)nc3c2c(=O)[nH]c(=O)n3C)s1 | 1.2%
CC(=O)c1ccccc1OCc1ccc(C(=O)c2ccccc2)cc1 | -11.9%
C=CCOC(=O)C1=C(C)OC(N)=C(C#N)C1c1c(C)nn(-c2ccccc2)c1Cl (stereo unspecified) | 7.7%
CCOC(=O)C(NC(=O)c1ccccc1)(Nc1cc(C)on1)C(F)(F)F (stereo unspecified) | 4.3%
COc1ccc(S(=O)(=O)N2CCCCC2)cc1NC(=O)[C@@H]1CCCN1C(=O)c1cccs1 | -8.5%
CCN(CC)c1ccc(C=C(c2nnnn2-c2ccc(C)cc2)c2nnnn2-c2ccc(C)cc2)cc1 | 2.5%
O=c1c2sc3ccccc3c2n(Cc2ccc(F)cc2)c(=O)n1Cc1ccco1 | -8.7%

Exported with the structure last: part of the list above.
VDR inh	compound
-9.9%	CCN(c1ccccc1)S(=O)(=O)c1ccc(NC(=O)C(C)(C)C)cc1
1.2%	Cc1nnc(SCCn2c(N3CCCCCC3)nc3c2c(=O)[nH]c(=O)n3C)s1
4.3%	CCOC(=O)C(NC(=O)c1ccccc1)(Nc1cc(C)on1)C(F)(F)F (stereo unspecified)
-2.6%	Cc1ccc(-c2nc3ncccc3o2)cc1NC(=O)c1cc2ccccc2o1
4.6%	Cc1c(NS(=O)(=O)c2cccs2)cccc1-c1nc2cccnc2s1
?	O=C(NCc1ccccc1)C1=C[C@@H](C2CCCCC2)C[C@@H](OCc2ccc(CO)cc2)O1

Remaining list, next part:
SMILES | VDR inh
CCS(=O)(=O)C1=NN2C(=N)/C(=C\c3ccc(OC(=O)c4ccco4)c(OC)c3)C(=O)N=C2S1 | ?
COc1ccc(C2N(c3cc(C)on3)C(=O)C3CCCN32)cc1OC (stereo unspecified) | 1.6%
COc1ccc(/C=C/C(=O)Nc2ccc3nc4n(c(=O)c3c2)CCCC4)cc1 | -15.9%
NC(=O)COC(=O)CNC(=O)c1ccc(Cl)cc1 | -14.3%
Cc1cc(N2CCN(c3cccc(C(F)(F)F)c3)CC2)n2nc(-c3ccccc3)nc2n1 | 10.9%
O=C(CNC(=O)c1cccs1)N/N=C/c1c(F)cccc1Cl | -0.6%
O=C(c1ccc(CS(=O)(=O)Cc2ccc(Cl)cc2)o1)N1CCCC1 | -5.8%
CC1(C)Cc2c(sc(NC(=O)C(=O)N3CCN(CCO)CC3)c2C(N)=O)CO1 | -10.2%
CCC(=O)N1CCC2(CC1)Oc1ccc(F)cc1C(=O)C21CC(c2ccccc2)=NO1 (stereo unspecified) | 3.8%
O=C(CSc1nccn1Cc1ccc(Cl)cc1)Nc1ccc2c(c1)OCO2 | 0.5%
CC(C)n1c(SCc2cc(=O)[nH]c3ccccc23)nc2c1c(=O)n(C)c(=O)n2C | -8.4%
CCOc1ccc(NC(=O)CCN2C(=O)c3ccccc3C2=O)cc1 | ?
CCC(CC)NC(=O)Cc1ccc(F)cc1 | -1.2%
COc1cc(C(Nc2ccc3c(c2)OCO3)C(=O)NC2CCCCC2)cc(OC)c1OC (stereo unspecified) | -13.9%
Cc1cc(C)c2c(N)c(C(=O)NN3CC(=O)N(c4ccccc4F)CC3=O)sc2n1 | 20.1%
CSc1ccc(CNC(=O)c2ccc(NC(=O)C3=CSCCO3)cc2)cc1 | -5.5%
CCOC(=O)C1=CN(Cc2cccc(-c3cccnc3)c2)S(=O)(=O)N(CC)C1C (stereo unspecified) | -7.7%
O=C(NCCc1ccccc1F)C1CCC(=O)N(Cc2ccc(Cl)cc2)C1 (stereo unspecified) | -14.6%
Fc1ccccc1CNc1ncnc2sccc12 | -1.0%
Cc1ccccc1N1CCN(Cc2c(C#N)c3ccccc3n2C)CC1 | 9.1%
COc1ccc(Cl)cc1NC(=O)CSc1c2c(nc3ccccc13)CCC2 | -3.3%
CCOc1ccc(NC(=O)CN(C)C(=O)C(C)Oc2ccc(Cl)cc2)cc1OCC (stereo unspecified) | 9.8%
COC(=O)C1C(=O)NC(SC)=C(C#N)C1c1ccccc1F (stereo unspecified) | -3.6%
Cc1cccc(NC(=O)c2cc(S(=O)(=O)N3CCCC3)cn2C)c1 | -18.9%
CCCSc1nnc2nc3c(nn12)c1ccccc1n3C | -18.7%
Cc1nc(Nc2cnc(/C=C/c3cc(C(=O)Nc4cccc(C(F)(F)F)c4)ccc3C)cn2)cc(N2CCNCC2)n1 | -11.2%
Cc1ccccc1NC(=O)Nc1ccccc1C(N)=O | -24.7%
C#CC(C)(CC)NC(=O)Cn1nnc(-c2cccc(C(F)(F)F)c2)n1 (stereo unspecified) | -10.1%
Cc1ccn2c(C=O)c(-c3ccc(F)cc3)c(C=O)c2c1 | -22.8%
Cc1noc(/C=C/N(C)C)c1S(=O)(=O)N1CCCC(C(=O)Nc2ccc(F)cc2F)C1 (stereo unspecified) | -2.5%&13.6%
Cc1ccc(N(C(=O)c2csnn2)C(C(=O)NC(C)(C)C)c2cccs2)cc1 (stereo unspecified) | 4.9%
CCn1nc(C)c2c(-c3ccccc3)cc(=O)n(C(C)C(=O)Nc3cc(C)ccc3C)c21 (stereo unspecified) | 0.6%
O=C(c1cccs1)N1CCN(c2ncccn2)CC1 | -7.1%
CCCn1c(SCC(=O)c2cc(C)c(C)cc2C)n[nH]c1=O | -13.5%
Cn1c(=O)c2c(-c3ccccc3)n(-c3cccc(C#N)c3)cc2n(C)c1=O | 4.0%
Cc1nc(C(C)N(C)Cc2nc(-c3ccc4c(c3)OCO4)no2)c(C)s1 (stereo unspecified) | 9.5%

Screens from PubChem BioAssay.
